From PubChem BioAssay
HCMV NEC inh = cytomegalovirus nuclear egress complex inhibition; HTRF UL50-UL53 interaction, normalized percent inhibition; inhibition, % (concentration not given with the values); actives 0.15% (n = 190,000); AID 1918969;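 active = both replicates at 50% or more, plus weaker picks with an unusually low signal ratio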;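 also: stock transfer was 100 nL into about 20 µL; 0% = negative control wells and 100% = wells with untagged competitor protein; inactives centre near -12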
* = called active by the depositor; & = joins results of further samples. The list is partial. The share of hits here may be higher or lower than overall.

Structure | HCMV NEC inh
CC12CCC(C(=O)Nc3ccc(Br)cn3)(OC1=O)C2(C)C (centres undefined) | -12.9
COc1cccc(NC(=O)CC2SC(N)=NC2=O)c1 (centres undefined) | 1.0
CC(C)Oc1ccc(C(=O)NCc2ccco2)cc1 | -8.3
NC(=O)C12CCC3CC(CC(C3)C1)C2 | 9.6&-24.4
CCOC(=O)c1[nH]c2ccccc2c1NC(=O)C(C)C | -18.4
CCOC(=O)COc1ccc2c3c(c(=O)oc2c1)CCC3 | 12.4
CC1(C)COC(=O)C1OC(=O)c1ccccc1 (centres undefined) | -2.6
CC(C)N(CCC#N)CN1C(=O)c2ccccc2C1=O | -42.2
COC(=O)c1ccc(OCC(O)CN2CCC(Cc3ccccc3)CC2)cc1 (centres undefined) | 0.3
CC(C)C(=O)NCCCc1nc2ccccc2[nH]1 | -1.8
Cc1ccc2c(c1)sc(=NC(=O)c1ccc(S(=O)(=O)N(C)C)cc1)n2C | 15.5
CCCCn1c(C2CC(=O)N(c3cc(OC)ccc3OC)C2)nc2ccccc21 (centres undefined) | -18.6
Nc1nc2[nH]c(=O)[nH]c2c(=O)[nH]1 | 6.6&6.6
CC1(C(=O)O)CCC(C(=O)N2CCc3ccccc32)C1(C)C (centres undefined) | 8.7&-1.6
CN1CCC(CN(C)Cc2ccc(-c3nc(-c4cccnc4)cc(=O)[nH]3)cc2)CC1 | -34.2&-34.2
CCCCCCCCCCCCCCCC(=O)OCC(COP(=O)(O)O)OC(=O)CCCCCCCCCCCCCCC (centres undefined) | -11.3
COc1ccc(-c2nc3n(n2)C(=O)CC(c2ccco2)S3)cc1 (centres undefined) | 2.6
CCOC(=O)C1CSC2(CCCCC2)N1 (centres undefined) | -10.2
CN(CC1COc2ccccc2O1)C(=O)Nc1nncs1 (centres undefined) | -9.8
CNC1=C(c2ccc(C(F)(F)F)cc2)C(=O)C(c2ccccc2)O1 (centres undefined) | -8.7
CCCCC/C=C\C/C=C\C/C=C\C=C\C(=O)CCCC(=O)O | -21.5
CC(C)(C)NC(=O)CC12CC3CC(CC(C3)C1)C2 | -10.4
Cc1ccc(/C=C/C(=O)O)cc1S(=O)(=O)N1CCc2ccccc2C1 | 9.6
O=C(Nc1ccncc1NC(=O)C1CC1)C1CC1 | -6.1
COc1ccc(C)cc1S(=O)(=O)n1nnc2ccccc21 | -15.0
COC(=O)C1=C(C)NC(SCC(=O)NCc2ccccc2)=C(C#N)C1c1ccccc1F (centres undefined) | -12.2
COC1=CC(=CN(O)c2ccccc2)C=C(OC)C1=O | -20.6
NC(=O)Cc1nc(-c2cc3ccccc3oc2=O)cs1 | -40.7
COc1ccc(-c2nnc3ccc(SCc4ccccc4F)nn23)cc1OC | -3.4
CC(C)c1ccc(C(=O)c2cccs2)c(SCCCCCCCCN(C)C)n1 | -14.8
O=C(Nc1ccccc1)c1ccc(S(=O)(=O)N2CCCCC2)cc1 | 1.1
O=C1NN(c2ccccc2)C(=O)C1=Cc1ccc(-c2ccc(Cl)cc2)o1 | -16.7
O=c1oc2c(-c3ccc(Cl)cc3Cl)cc(O)cc2s1 | 1.4
CN(CC[C@@H](Oc1ccc(-c2ccccc2)cc1)c1ccc(F)cc1)CC(=O)O | -4.7
CC[N+](CC)(CC)CCC(O)(c1ccccc1)C1CCCCC1 (centres undefined) | -6.7
Cc1c(Cl)ccc(S(=O)(=O)Nc2ccncc2)c1Cl | -16.1
CC1CCN(C(=O)C23CC4CC(CC(C4)C2)C3)CC1 | -17.9
CCc1c(O)cc(O)c(C(=O)c2ccc(OCCN3CCOCC3)c(OC)c2)c1CC(=O)N(CCOC)CCOC | -7.5
COc1ccc(-n2c(SC)nnc2-c2ccc(OC)c(OC)c2)cc1 | -1.1
Cc1nn(C)cc1-c1ccnc(N2CCCC(c3nc4c(C)cccc4[nH]3)C2)n1 (centres undefined) | -14.4
CC1CCN(CC(O)Cn2c3ccccc3c3ccccc32)CC1 (centres undefined) | 4.2
CCCOc1ccc(Br)cc1-c1cc(-c2ccc(Cl)cc2)[nH]c1-c1ccncc1 | -3.4
O=C(CSc1n[nH]c(=O)n1-c1cccc(C(F)(F)F)c1)N1CCC(C(F)(F)F)CC1 | 13.3
CCOc1nc(S(=O)(=O)c2ccc(C)cc2)c(Cl)s1 | -17.1
CCC(=O)c1c[nH]c(C(=O)NCCCn2ccnc2)c1 | 11.9
COc1ccc2c(=O)c(-c3csc(C)n3)coc2c1C | 8.0
COC1C=CC=C(C)C(=O)NC2=CC(=O)C(NCCN(C)C)=C(CC(C)CC(OC)C(O)C(C)C=C(C)C1OC(N)=O)C2=O (centres undefined) | -38.4
COc1cccc(-c2nc3ccccc3c(=O)o2)c1 | -9.0
C=CS(=O)(=O)NC1CCN(C(=O)CNc2cc(I)c(Cl)cc2OC)CC1 | 12.3
OC(CNC1CCCCC1)COc1ccc(-c2ccccc2)cc1 (centres undefined) | 4.6
O=C(NCCN1CCCCC1)c1ccc(I)cc1 | -7.9
O=C(CSc1nccc2ccccc12)N1CCN(c2ccccn2)CC1 | -14.5
CC1Cc2cc(C(=O)N3CCC(n4cc(CCO)nn4)CC3)ccc2O1 (centres undefined) | -14.9
N#CC1=C(SCC(=O)N2CCOCC2)NC(=O)CC1c1ccccc1F (centres undefined) | -12.0
O=C(Cc1ccccc1)Nc1nc2ccc(Cl)cc2s1 | -11.1
CC(C)(C)[N+]([O-])=Cc1ccc(S(=O)(=O)O)cc1S(=O)(=O)O | 7.5
CCCCCCCCCCCCCCCCOC[C@H](COP(=O)([O-])OCC[N+](C)(C)C)OC(=O)CCC | -3.5&-3.5
COC(=O)c1ccc(C(=O)Nc2cccc3c(OC)cccc23)cc1 | -10.0
COc1ccc(Br)cc1S(=O)(=O)n1ccnc1C(C)C | -9.5
COc1ccc(OC)c(C2SCCN2C(=O)c2cc3ccccc3oc2=O)c1 (centres undefined) | -19.7

Next records.
Structure | HCMV NEC inh
Cc1cccc(C)c1N1CCN(Cc2ccc(Cl)nc2)CC1 | -12.0
CCCNC(=O)c1ccc2c(c1)ncn2-c1cccc(Cl)c1 | -4.7
CC(Nc1ncnc2nc[nH]c12)c1ccccc1 (centres undefined) | -8.0
CCOc1ccccc1NC(=O)CC1SC(N)=NC1=O (centres undefined) | -0.2
O/N=C/c1cn(-c2ccccc2)nc1-c1cccs1 | -5.6
CCCC(=O)Nc1nc2c(s1)CC(C)CC2 (centres undefined) | 10.9
c1nc(N2CCCC2)c2[nH]cnc2n1 | -13.6
O=c1cc(CSc2ccc(Cl)cc2)c2ccc(O)cc2o1 | -16.8
O=C(c1cncc(Br)c1)N1CCC(N2CCCC2)CC1 | -2.2
O=c1ncn(-c2cccc(Cl)n2)[nH]1 | -2.6
CCN(CC)CCNc1ncnc2c1cnn2-c1ccccc1 | -13.5
COC(=O)c1ccc(/C=N/n2cnnc2)cc1 | -6.0
CCn1cc(SCC(=O)Nc2ccccc2)c2ccccc21 | 2.5
CC(O)Cc1cn(C2CCN(c3ncnc4nc[nH]c34)CC2)nn1 (centres undefined) | -14.4&-14.4
CC(=O)Nc1ncc(Cc2ccc(C)cc2)s1 | -14.8
Cc1cc2cc(CNC(=O)c3ccc(S(=O)(=O)N(C)C)cc3)ccc2n1C | -8.0
Cc1nnc(NC(=O)CCn2c(=O)sc3ccccc32)s1 | 3.7
NCc1ccc2[nH]c3c(c2c1)CCCC3 | -0.9
O=C(O)CSc1nnc(-c2cccs2)n1-c1cccc(C(F)(F)F)c1 | -4.9
C=CC(=O)Nc1cccc(Nc2nc(NC3CCC(N(C)C)CC3)nc3c2ncn3C(C)C)c1 (centres undefined) | -8.7
COc1ccc2ccc(=O)oc2c1CC=C(C)C | 7.8
CSc1nnc(-c2cccs2)n1-c1ccccc1 | -1.5
O=C(Nc1nc(-c2ccccc2)cs1)c1cccc(S(=O)(=O)N2CCCC2)c1 | 4.9
Cc1c(O)ccc(-c2[nH]ncc2-c2ccccc2)c1O | -2.6
C=CCn1c(=O)c2cnc(Nc3ccc(N4CCN(C)CC4)cc3)nc2n1-c1cccc(C(C)(C)O)n1 | 1.4
O=C1OC(O)C(c2cc3ccccc3s2)=C1Br (centres undefined) | -20.7&-20.7
CC1=C(C(=O)Nc2ccccc2)C(c2cccs2)C(C#N)=C(SCC(=O)Nc2ccc(F)cc2)N1 (centres undefined) | -6.9
O=C(CCCN1C(=O)/C(=C\c2ccco2)SC1=S)Nc1ccc2ccccc2c1 | -16.3
O=C(/C=C/c1cccs1)Nc1scc(-c2ccccc2)c1C(=O)O | -43.9
CCn1c(-c2ccc(N)cc2)nc2ccccc21 | 9.0&5.8

Fetched one by one from the list above, 2 records:
Structure | HCMV NEC inh
CCCCCCCCCCCCCCCCOC[C@H](COP(=O)([O-])OCC[N+](C)(C)C)OC(=O)CCC | -3.5&-3.5
O=C(Nc1ccccc1)c1ccc(S(=O)(=O)N2CCCCC2)cc1 | 1.1

Additional records:
Structure | HCMV NEC inh
CN1CCN(S(=O)C23CC4CC(CC(C4)C2)C3)CC1 (centres undefined) | -13.3
C=CCn1c(SCC(N)=O)nnc1-c1cccs1 | 4.4
CCCCCC/C=C\CCCCCCCC(=O)OCC | -11.6&-11.6
CCCCCCCCCCCCc1ccc(S(=O)(=O)Nc2nncs2)cc1 | -330.2
CCCC(=O)Nc1c2c(nn1-c1cccc(Cl)c1)CS(=O)(=O)C2 | -5.1
CC1CC(C)CN(C(=O)c2ccc(C#N)cc2)C1 (centres undefined) | -9.1
O=C(/C=C/c1ccco1)OCC(=O)c1ccccc1 | -21.4
C1CCC(N=C(NC23CC4CC(CC(C4)C2)C3)N2CCOCC2)CC1 | 1.5
CN1C(=O)/C(=C/C2=Cc3ccccc3OC2)SC1=S | 0.8
COc1cc(C)c(CNC(C)CCCC(C)(C)O)c(C)c1C (centres undefined) | -21.3
CC(C)CC(C(=O)N1CCOCC1)N1Cc2ccccc2C1=O (centres undefined) | -4.5
Cc1sc2nc(SCC(=O)NCCO)nc(N)c2c1C | 8.2
COc1ccc(F)c(-c2cccc(N)n2)c1 | 38.2&38.2
COc1cccc(-n2cc(-c3ccnc(N(C)Cc4cccnc4)n3)cn2)c1 | 8.3
Cc1cc(O)c(C=Nc2cccc(C(F)(F)F)c2)c(=O)o1 | -4.7
CCCOC(=O)c1cccc(NC(=O)C23CCC(C)(C(=O)O2)C3(C)C)c1 (centres undefined) | 3.2
C=CCn1nnnc1SCC(=O)c1ccccc1 | -3.6
COc1ccc2c(C(=O)N(C)C3CCN(C)C3)cc(-c3cnn(C)c3)nc2c1 (centres undefined) | 46.9&46.9
COC(CN(C)C(=O)CN1CCN(Cc2ccc(Cl)cc2)C1=O)OC | -13.4
COc1ccc(CN2CCN(Cc3c[nH]c4ccccc34)CC2)c(OC)c1OC | -14.4
Cc1ccsc1C=Nc1ccc(Cl)cn1 | -13.2
COc1ccc(NC(=O)CCCc2c[nH]c3ccccc23)c(OC)c1 | -5.5
O=C(CSc1cn(Cc2ccccc2)c2ccccc12)N1CCCC1 | -4.8
O=C(Nc1nc(-c2ccc(Cl)s2)cs1)c1ccco1 | -37.5
CCOC(=O)CSc1nc(N)c(C#N)c(CC(C)C)c1C#N | -20.8
CCCc1c(OCC(O)COc2ccc3c(=O)cc(C(=O)O)oc3c2CCC)ccc(C(C)=O)c1O (centres undefined) | -70.2
CCCOc1cc(N)ccc1C(=O)OCCN(CC)CC | -12.4
CCCc1nc2ccccc2n1CC(=O)N(c1ccccc1)C(C)C | -19.5
CC(NS(C)(=O)=O)C(c1cccs1)N1CCN(c2ccccc2)CC1 (centres undefined) | 3.7
CCCc1cc(NCCN(C)C)n2c(nc3ccccc32)c1C#N | -16.8
Nc1cc(=O)[nH]c(SCc2ccc(C(=O)c3ccccc3)cc2)n1 | -9.1
CCCCCCCCCCCCCCP(=O)(O)O | -13.2&-13.2
Cn1ccnc1CN1C[C@@H](CN2CCOCC2)C[C@@H](C(=O)N2CCCC2)C1 | 3.9
C=CCN=C1SCC(=O)N1S(=O)(=O)c1ccccc1 | -6.2
CCOC(=O)c1oc2ccccc2c1NC(=O)CCSc1ccccc1 | 3.6
O=C(Nc1nc(-c2ccc(Cl)s2)cs1)C1=COCCO1 | -6.7
COc1ccc(S(=O)(=O)NCc2cccnc2)c2ccccc12 | -4.7
CCOC(=O)C1CCCc2c1[nH]c1c(C(=O)O)cccc21 (centres undefined) | 2.2
O=C(Nc1ccc2c(c1)OCO2)c1cc(Cl)sc1Cl | -2.8
CCN(CC)c1c(-c2ccccc2)c2cc(Br)ccc2[nH]c1=O | -1.4
O=C(O)COc1ccc2c(=O)c(-c3cscn3)coc2c1 | -2.2
COC(=O)c1ccc(Oc2ncnc3sc(C)c(C)c23)cc1 | -14.6
COc1cccc(OC)c1OCC(O)CN1CCN(C)CC1 (centres undefined) | -12.5
CCN1CCN(Cc2ccc(NC(=O)c3ccc(C)c(NC(=O)C4=NN(c5ccccc5)C(=O)C4)c3)cc2C(F)(F)F)CC1 | -16.7
CCSc1nnc(NC(=O)C(C)SC2=NCCS2)s1 (centres undefined) | -7.5
CC(C)C(=O)Nc1ccc(S(=O)(=O)N2CCCCC2c2cccnc2)cc1 (centres undefined) | -9.1
COc1ccccc1NC(=O)c1csc2c1CCCC2 | -0.7
CCOCC(=O)NC12CC3CC(CC(C3)C1)C2 | -21.6
CCCCC/C=C\C[C@@H](O)/C=C/C=C\C/C=C\CCCC(=O)O | 3.2
COCc1cc(=O)[nH]c2cc(NC(=O)C(F)(F)F)c(C)cc12 | 14.1
C=CCn1c(CCCNC(=O)c2ccccc2)nc2ccccc21 | 8.3
Cc1ccc(C(=O)c2ccccc2C(=O)O)s1 | -5.1

An excerpt from above in order of molar mass, lowest first:
Structure | HCMV NEC inh
CNC1=C(c2ccc(C(F)(F)F)cc2)C(=O)C(c2ccccc2)O1 (centres undefined) | -8.7
COc1ccc(NC(=O)CCCc2c[nH]c3ccccc23)c(OC)c1 | -5.5
C1CCC(N=C(NC23CC4CC(CC(C4)C2)C3)N2CCOCC2)CC1 | 1.5
